H5N1 CPE = MDCK cell protection from H5N1 avian flu; cytopathic effect, luminescence, 72 h; hits give high values; no value below 0 was filed and about half of the inactive calls have no number; reference of the scale not given here; inhibition, % at 50 µM; 0.07% of 96,000 active; AID 740, 2007; in the data active = inhibition above about 25%
* = called active by the depositor; i = inactive. These rows are one share of the data, so the mix of outcomes need not match the whole.

SMILES	H5N1 CPE
O=c1[nH]c(SCc2ccccc2Cl)nc2c1CCCC2	0.1
O=c1ccn(-c2cccc(C(F)(F)F)c2)nc1-c1ccn(-c2ccccc2F)n1	3.1
CCN(CC)C(=O)Cn1cnc2c1c(=O)n(C)c(=O)n2C	0.0
COc1ccc(C(=O)N/N=C/c2cc3ccccc3[nH]c2=S)cc1	1.0
O=C(c1ccccc1)c1ccc(OCC(O)CN2CCN(S(=O)(=O)N3CCCCC3)CC2)cc1 (stereo not drawn)	i
CC1CCCCN1C(=O)CSc1nnc(CSc2ncccn2)n1C (stereo not drawn)	i
CCOC(=O)c1sc2ncn(C(C)C(=O)OC)c(=O)c2c1C (stereo not drawn)	i
C=C1C2(C(=O)Nc3nccs3)CCC(C2)C1(C)C (stereo not drawn)	i
COC(=O)Cc1[nH]nc2c1C1(C(=O)N(Cc3ccccc3)c3ccccc31)C(C#N)=C(N)O2 (stereo not drawn)	i
COc1ccc(C2N(c3ccc(F)cc3)C(=O)C3CCCN32)cc1 (stereo not drawn)	i
COCc1nnc(NS(=O)(=O)c2ccc(C)cc2)s1	1.1
CN(C)c1ccc(CN(C)C2CCCCC2)cc1	0.0
CC1=C(C(=O)OC(C)C)C(c2ccncc2)n2ncnc2N1 (stereo not drawn)	1.6
Cc1nc(CSc2ccc(Cl)cc2)cc(NCc2ccccc2)n1	0.3
O=C(NCc1ccc2c(c1)OCO2)C1CCN(C(=O)Nc2ccc(Cl)cc2)CC1	i

Part of the list above, with bars between the fields.
compound | H5N1 CPE
CC1CCCCN1C(=O)CSc1nnc(CSc2ncccn2)n1C (stereo not drawn) | i
CCOC(=O)c1sc2ncn(C(C)C(=O)OC)c(=O)c2c1C (stereo not drawn) | i
C=C1C2(C(=O)Nc3nccs3)CCC(C2)C1(C)C (stereo not drawn) | i
COC(=O)Cc1[nH]nc2c1C1(C(=O)N(Cc3ccccc3)c3ccccc31)C(C#N)=C(N)O2 (stereo not drawn) | i
COc1ccc(C2N(c3ccc(F)cc3)C(=O)C3CCCN32)cc1 (stereo not drawn) | i

Other compounds follow:
SMILES	H5N1 CPE
COC(=O)CCC(=O)Nc1cccc2ccccc12	i
COc1ccc(S(=O)(=O)N2CCC(C(=O)NCCC3=CCCCC3)CC2)cc1OC	0.1
O=c1[nH]c(-c2ccccn2)nc2ccccc12	i
COc1ccc(S(=O)(=O)N2CCCC(C(=O)N3CCCCCC3)C2)cc1 (stereo not drawn)	i
CC(OC(=O)C1=Cc2ccccc2OC1)C(=O)NC1CCCC1 (stereo not drawn)	0.6
CCOc1ccc(NC(=O)N2CCC(NC(=O)C(Cc3ccc(OC)c(OC)c3)NC(C)=O)CC2)cc1 (stereo not drawn)	i
O=C(C1CCN(Cc2ccccc2)CC1)N1CCCC1	1.4
N#Cc1c(-c2ccc(F)cc2)noc1N	i
COc1ccc(CNC(=O)c2csnn2)cc1	0.8
Cn1c(Cl)c(/C=N/OC(=O)c2ccccc2Cl)c2ccccc21	i
CSc1ncccc1C(=O)OCn1nnc2ccccc2c1=O	0.3
CCOC(=O)c1ccc(N2C(=O)CC(N3CCC(O)(c4ccc(Cl)cc4)CC3)C2=O)cc1 (stereo not drawn)	i
CC(=O)NC(Cc1ccc(C)cc1)C(=O)NC1CCN(C(=O)c2cnccn2)CC1 (stereo not drawn)	0.5
CCOC(=O)Cc1cc(=O)n2[nH]c(C)c(C#N)c2n1	0.7
COCCNc1cc(C)nc2ccccc12	0.3
CCCCC(=O)Nc1cc(NC(=O)CCCC)cc(C(=O)O)c1	i
COC(=O)C(O)(c1ccc(N(C)S(=O)(=O)c2ccccc2)cc1)C(F)(F)F (stereo not drawn)	0.3
Cc1cc(C)c2[nH]c(=O)c(CN(Cc3ccc4c(c3)OCO4)Cc3nnnn3C3CCCC3)cc2c1	i
Cn1ccc(C(=O)N2CCCc3ccccc32)n1	i
C=CCOC(=O)C1=C(C)NC(SCC(=O)Nc2ccc(C)c(Cl)c2)=C(C#N)C1c1ccco1 (stereo not drawn)	i
N#Cc1c2n(c3c(=O)n(Cc4ccc(Cl)cc4)cnc13)CCCC2	i
COc1ccc(S(=O)(=O)N2CCC(C(=O)N3CCCCCC3)CC2)cc1	0.1
CC(CC(=O)Nc1cc([N+](=O)[O-])ccc1Cl)c1ccccc1 (stereo not drawn)	i
Cc1ccc2[nH]c3c(c2c1)CN(C(=O)CN1CCSCC1)CC3	2.8
COc1cc(OC)cc(C(=O)NC(=S)NCc2ccco2)c1	i
O=C(NCCOC(=O)C1COc2ccccc2O1)C1COc2ccccc2O1 (stereo not drawn)	0.6
CCOC(=O)N1CCC(NC(=O)CSCc2nc(-c3sccc3C)oc2C)CC1	i
COCCNC(=O)C(c1ccc(F)cc1)N(Cc1ccco1)C(=O)CCC(=O)Nc1nccs1 (stereo not drawn)	1.6
COC(=O)CC1COc2ccccc2N1C(=O)c1cccc(Cl)c1 (stereo not drawn)	0.7
Cc1nn(-c2nc3ccccc3s2)c(N)c1-c1ccccc1	i
CCOc1ccc(/C=C/C(=O)Nc2ccc(OC)cc2[N+](=O)[O-])cc1	i
O=C(COc1cccc(-n2cnnn2)c1)N1CCOCC1	0.2
COc1cc(NC(=O)CS(=O)(=O)c2ccccc2)cc(OC)c1OC	i
O=C(Cn1c(=O)oc2ccccc21)NCc1ccco1	1.5
N#Cc1c(-c2cccs2)cc(-c2cccnc2)nc1N	3.1
O=C(OCC#CCSc1nc2ccccc2o1)c1ccco1	0.2
NC(=O)CC(NC(=O)OCc1ccccc1)C(=O)O (stereo not drawn)	i
Cc1cc(C)cc(-n2nnnc2SCC(=O)Nc2cccc(NC(=O)c3ccco3)c2)c1	i
CSC1=N/C(=C\C=C\c2cccs2)C(=O)S1	i
COc1cccc(NC(=O)COC(=O)c2c(-c3ccccc3)noc2C)c1	i
O=C(O)CN1C(=O)Nc2ccc(Br)cc2C1c1ccccc1 (stereo not drawn)	i
O=C(CSc1nc(Nc2ccccc2)nc(N2CCOCC2)n1)Nc1ccc([N+](=O)[O-])cc1	15
Cc1cc(C)c(S(C)(=O)=O)c(Oc2ccccc2C)n1	1.3
CN(C)/C=C1\C(=O)N(c2ccc(Cl)cc2)CS1(=O)=O	i
Cc1ccc(-n2ncc(C#N)c2/N=C/N2CCOCC2)cc1	1.9

6 neighbouring entries out of the list so far, quoted:
SMILES	H5N1 CPE
COc1cccc(NC(=O)COC(=O)c2c(-c3ccccc3)noc2C)c1	i
O=C(O)CN1C(=O)Nc2ccc(Br)cc2C1c1ccccc1 (stereo not drawn)	i
O=C(CSc1nc(Nc2ccccc2)nc(N2CCOCC2)n1)Nc1ccc([N+](=O)[O-])cc1	15
Cc1cc(C)c(S(C)(=O)=O)c(Oc2ccccc2C)n1	1.3
CN(C)/C=C1\C(=O)N(c2ccc(Cl)cc2)CS1(=O)=O	i
Cc1ccc(-n2ncc(C#N)c2/N=C/N2CCOCC2)cc1	1.9

(cont.)
SMILES	H5N1 CPE
CCCNc1ncccc1C(N)=O	i
O=C(COc1ccccc1Br)c1ccc(O)cc1O	i
CC1(C)CC(=O)C(C=NCC2CCCO2)=C(O)C1 (stereo not drawn)	i
COCc1cc(C)nc(SCC(=O)NCc2ccco2)c1C#N	2.6
COc1ccccc1C(=O)NC(C)C(c1cccs1)N1CCOCC1 (stereo not drawn)	0.1
O=C(Nc1ccccc1)Nc1cc(Cl)cc(Cl)c1	i
C=C1CC2C=C(NC(C)=O)CC(C1)C2 (stereo not drawn)	0.1
CC12CCC(C(=O)N(Cc3ccccc3)Cc3ccccc3)(OC1=O)C2(C)C (stereo not drawn)	1.1
O=C(O)c1ccccc1C(=O)NCc1ccc(F)cc1	0.6
CCn1c(SCC(=O)Nc2cc(OC)ccc2OC)nnc1C1CCCCC1	0.9
CCOC(=O)Nc1cccc(Cl)c1C	0.2
COCC(=O)N(C)C1(c2nnnn2CCOC(=O)Nc2ccc(Cl)cc2)CCCC1	0.2
COc1ccc(C2(CNC(=O)c3ccc(OC)c([N+](=O)[O-])c3)CCOCC2)cc1OC	0.6
O=C(O)CCCC(=O)Nc1ccccc1Br	0.1
Cc1ccc(N2C(=O)c3ccccc3C2Nc2ccccc2)nc1 (stereo not drawn)	1.9
CCOc1cc(NC(=O)C2CCCO2)c(OCC)cc1NC(=O)C1CC1 (stereo not drawn)	i
Cn1c(=O)[nH]c(=O)c2c1nc(N1CCCC1)n2CCSc1nc2ccccc2[nH]1	1.6
CC1CC(C)CN(c2nc3c(c(=O)n(C)c(=O)n3C)n2CCSc2ncccn2)C1 (stereo not drawn)	2.9
O=C(/C=C/Nc1ccccc1)c1ccccc1	0.1
CCCN(CCC)CCNC(=O)C(NS(=O)(=O)c1ccc2c(c1)CCC(=O)N2)c1ccccc1 (stereo not drawn)	0.1
N#Cc1nc(Cc2ccccc2)oc1NCCN1CCOCC1	0.2
O=C(CSc1nnc(-c2ccc(F)cc2)o1)c1ccc2c(c1)OCCO2	0.3
CCOC(=O)Nc1sc2c(c1C(=O)OCC)CCC2	i
CCc1ccccc1NC(=O)CC(O)(C(=O)OC)C(F)(F)F (stereo not drawn)	i
COc1ccccc1-c1c(C)nn2c(N3CCN(Cc4ccccc4)CC3)cc(C)nc12	0.3
CCOC(=O)c1ccc(NC(=O)CSc2nnc(Cn3c(=O)sc4ccccc43)n2C)cc1	0.9
CCOc1cc(C2NC(=O)NC(C)=C2C(C)=O)cc(Cl)c1OCC(=O)O (stereo not drawn)	0.3
CC12CCC(c3c(CO)nn(-c4ccccc4)c31)C2(C)C (stereo not drawn)	i
CCCCOC(=O)Nc1ccc(S(=O)(=O)Nc2cc(C)nc(C)n2)cc1	2.0
O=C(/C=C/c1ccccc1Cl)NCc1ccco1	i
CN(C)c1nc2c(c(=O)n(C)c(=O)n2C)n1Cc1ccccc1	1.1
CCOc1ccc(C2C(C#N)=C(N)Oc3cc(C)n(CCN4CCOCC4)c(=O)c32)cc1OCC (stereo not drawn)	0.7
COC(=O)c1c(C)n(Cc2ccc3c(c2)OCO3)c2ccc(O)cc12	2.6
O=c1cc(-c2ccccc2)[nH]c2[nH]n(-c3ccccc3)c(=O)c12	i
CC(=O)NC(CCS(C)(=O)=O)C(=O)Nc1cc(Cl)ccc1Cl (stereo not drawn)	i
CC1CCN(S(=O)(=O)c2cccc(S(=O)(=O)N3CCOCC3)c2)CC1	0.7
Cn1c(=O)cc(SCC(=O)NCCCN2CCN(c3ccc(F)cc3)CC2)c2ccccc21	1.1
COCCCNc1nc2ccccc2nc1NS(=O)(=O)c1cccs1	2.5
CC(NC(=O)c1ccccc1Br)c1nnc(SCc2ccc([N+](=O)[O-])cc2)n1C (stereo not drawn)	1.1
Cc1cc(=O)n2nc(N3CCCC(C(=O)N4CCN(c5ccccc5)CC4)C3)sc2n1 (stereo not drawn)	1.0
CCCCCC(=O)NC(=S)Nc1ccccc1C(=O)OC	0.0
O=C(c1ccco1)N(Cc1cc2ccccc2[nH]c1=O)CC1CCCO1 (stereo not drawn)	i
CCc1nc(SCC(=O)Nc2cc(C)on2)n[nH]1	0.1
CCCc1nc2ccccc2c(C(=O)OCC(=O)c2ccc3c(c2)NC(=O)CO3)c1CC	0.5
COc1ccc(OC)c2c1CC(C)(C)NC2=O	3.2
O=C(COC(=O)c1cc(S(=O)(=O)N2CCOCC2)ccc1Cl)Nc1ccc2c(c1)OCO2	i
CCn1cc(C2=NOC(C(=O)Nc3ccccc3C(=O)OC)C2)c(C)n1 (stereo not drawn)	i
CCN1CCN(c2ncnc3c2cnn3-c2ccccc2)CC1	0.2
CN(C)c1ccc(N/C=C/C(=O)c2ccco2)cc1	i
O=C(Nc1nccs1)c1ccc(COc2ccc(F)cc2)o1	i
CCOC(=O)c1c(C)[nH]c(C)c1C(=O)COC(=O)c1cccc(S(=O)(=O)N(CC)CC)c1	2.2
CCCCNC(=O)c1ccc2c(=O)n(CCCOCC)c(=S)[nH]c2c1	i
N#CCc1nc2n(n1)Cc1ccccc1-2	0.8
O=C(COc1nsnc1N1CCOCC1)N1CCOCC1	i
CCC(=O)Nc1nnc(SCC(=O)Nc2ccc(F)cc2)s1	i
CCOC(=O)CSc1nc(N)c(C(=O)Nc2ccc(N(C)C)cc2)s1	i
Cc1n[nH]c(C)c1S(=O)(=O)NCCc1ccc(Cl)cc1	0.4
Cc1ccc(C(=O)n2nc(-c3ccco3)nc2N)cc1	i
Cc1oc(-c2ccccc2)cc1C(N)=O	i
Cc1cc(C)c(NC(=O)c2ccccc2CCc2ccccc2)c(C)c1	i

Further structures:
SMILES	H5N1 CPE
CC(C)CC(NC(=O)c1ccccc1)C(=O)OCC(=O)Nc1ccc(Br)cn1 (stereo not drawn)	0.4
O=S(=O)(c1ccc(Cl)cc1)n1ccc(-c2cccc(OCc3c(F)cccc3Cl)c2)n1	0.3
COc1ccc(-c2nn(-c3ccccc3)cc2C(=O)Nc2nc(CC(C)=O)ns2)cc1	i
CCCCNc1ncnc2c1cnn2-c1ccc(Cl)cc1	i
COC(=O)C(C)Sc1nc2c(c(=O)n1-c1ccccc1)SCC2 (stereo not drawn)	i
O=C(Nc1ccc2nc(-c3cccs3)c(-c3cccs3)nc2c1)N1CCOCC1	i
CCC(=O)Nc1ccc(N2CCN(Cc3ccccc3)CC2)cc1	i
Cc1cc(C)c(C(=O)COC(=O)[C@H](C)Nc2ccc(C(F)(F)F)cc2[N+](=O)[O-])c(C)c1	0.2
CCCCc1[nH]c(=O)c(C#N)c2c1CSC(C)(C)C2	1.4
COc1ccc(N(CC(=O)NCc2cccc(OC)c2)S(=O)(=O)c2c(C)noc2C)cc1	i
COC(=O)C(=O)/C=C(\O)c1ccc(C)cc1	0.9
CCN(CC(O)Cn1c2ccccc2c2ccccc21)S(=O)(=O)c1ccc(C)cc1 (stereo not drawn)	i

Screens from PubChem BioAssay.
